Cruzain Triton – cruzain (T. cruzi) inhibition with detergent; Potency, µM, without a hit: max response, negative = inhibition, most hits filed as inhibitors; 200,000 tested, 0.43% active; P25779; purified cruzain, Z-FR-AMC fluorescence, 0.01% Triton;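 note: plate controls were neutral wells for no effect and buffer without enzyme for full effect; nearly all actives have a fitted effect of over 40% in size; top concentration of the series not given in the record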
Target sequence (P25779 123-467 limits assumed): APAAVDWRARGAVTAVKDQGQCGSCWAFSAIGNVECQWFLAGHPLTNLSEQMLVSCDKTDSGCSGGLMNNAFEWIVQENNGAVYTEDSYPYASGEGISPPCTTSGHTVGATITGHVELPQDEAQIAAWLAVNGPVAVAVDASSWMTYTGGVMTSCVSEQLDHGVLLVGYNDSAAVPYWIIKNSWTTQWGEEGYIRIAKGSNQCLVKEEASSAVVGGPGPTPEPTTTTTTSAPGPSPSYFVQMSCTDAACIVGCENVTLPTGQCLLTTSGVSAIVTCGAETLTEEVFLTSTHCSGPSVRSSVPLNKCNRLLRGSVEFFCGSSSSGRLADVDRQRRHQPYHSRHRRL
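Steps: dispense cruzain (1.5 nM final) in acetate buffer pH 5.5 with DTT and 0.01% Triton X-100; pin-transfer compounds; incubate 15 min RT; add Z-FR-AMC (2 uM final); read fluorescence every 30 s, using the 60 s intensity change.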
MARV entry inh – blocks Marburg virus binding to or entry into cells. Marburg virus pseudotyped entry inhibition, cell reporter; control for the full effect not named in the record; about a third of the inactives were read at about 46 µM. AID 540276. Potency, µM (titrated, usually from 37.8 µM), for the others: top-dose activity change, negative = inhibition, usual class: inhibitors. 300,000 tested, 1.8% active; active = well fitted inhibition curve with a large enough effect; inconclusive = small, poorly fitted or top-dose-only effect, or effect the other way; inactive = flat fitted curve, though single readings scatter; tested in HEK293 cells; about a fifth of its hits are not listed in these tables; note: % is set by controls: 0 for no effect and ±100 for the full control effect; luciferase read-out
StopGo reporter – lowers the luciferase signal of an FMDV 2A StopGo reporter; 410,000 tested, 1.2% active; human cells with a luciferase reporter of 2A StopGo recoding; control for the full effect not named in the record; Potency, µM (top dose mostly 57.9 µM), for the others: at the top dose signal change, negative = less light; AID 1159524; active = well fitted falling curve with a large enough effect; inconclusive = small, poorly fitted or top-dose-only effect; inactive = no such curve, though single readings can be large or run the other way; tested in HEK293T cells; note: % is set by controls: 0 for no effect and ±100 for the full control effect; nearly all actives have a fitted effect of over 45% in size; luciferase light after 4 h
NS1 function inh – blocks influenza NS1 protein function; S. cerevisiae slowed by influenza A NS1, growth recovery by OD600; Potency, µM (doses to about 46.1 µM), inactives show at the highest dose activity, positive = more growth; 270,000 tested, 0.4% active; active means well fitted rising curve with a large enough effect; inconclusive means small, poorly fitted or top-dose-only effect; inactive means no such curve, though single readings can be large or run the other way; note: nearly all actives have a fitted effect of over 50% in size
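In this qHTS, NS1 from influenza A is expressed in budding yeast, where it slows growth. Cells are switched from glucose to 2% galactose medium (pH 6.0, -URA), treated with compound, and growth recovery is read at OD600.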
Cruzain inh noDet – inhibitors of Trypanosoma cruzi cruzain without detergent; P25779; purified cruzain, Z-FR-AMC fluorescence, no detergent; Potency, µM, without a hit: max response, negative = inhibition, hits mostly inhibitors; 200,000 tested, 2.3% active; AID 1476;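 note: plate controls were enzyme without inhibitor for no effect and buffer without enzyme for full effect; nearly all actives have a fitted effect of over 40% in size; top concentration of the series not given in the record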
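Detergent-free condition (0.00005% Triton X-100) in acetate buffer pH 5.5 with DTT. 1.5 nM enzyme and compound were pre-mixed 15 min, then 2 uM Z-FR-AMC substrate added; reaction progress from fluorescence change between first and third reads (60 s).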
RE007 growth inh – less growth of the S. pombe RE007 Vpr strain. S. pombe RE007 Vpr strain, BacTiter-Glo ATP luminescence, 24 h; control for the full effect not named in the record. Potency, µM (series often up to 92.2 µM), for the others: at the highest dose activity change, negative = less growth. 360,000 tested, 0.21% active; active = well fitted falling curve with a large enough effect; inconclusive = small, poorly fitted or top-dose-only effect; inactive = no such curve, though single readings can be large or run the other way;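 note: % is set by controls: 0 for no effect and ±100 for the full control effect; nearly all actives have a fitted effect of over 50% in size; the assay follows cell death caused by Vpr and the record does not say whether a fall means rescue or toxicity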
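Fission yeast strain RE007, carrying one chromosomally integrated HIV-1 vpr copy, was seeded at OD 0.01 in PMG+AL medium with 23 nL pinned compound. After 24 h at 30 °C and 99% humidity, viability was read by BacTiter-Glo luminescence.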
Lassa entry inh – inhibitors of Lassa virus binding or cell entry. Lassa virus pseudotype entry inhibition, cell reporter; control for the full effect not named in the record. Potency, µM (top dose mostly 37.9 µM), inactives show at the top dose activity change, negative = inhibition, hits mostly inhibitors. 300,000 tested, 1.2% active. AID 540256; active means well fitted inhibition curve with a large enough effect; inconclusive means small, poorly fitted or top-dose-only effect, or effect the other way; inactive means flat fitted curve, though single readings scatter; tested in HEK293 cells; note: % is set by controls: 0 for no effect and ±100 for the full control effect; nearly all actives have a fitted effect of over 50% in size; luciferase read-out
SARS PLpro yeast – inhibitors of SARS-CoV papain-like protease in yeast. Potency, µM (highest dose often 32.9 µM), inactives show at the highest dose activity, positive = growth rescue. S. cerevisiae expressing SARS-CoV PLpro, growth rescue; control for the full effect not named in the record. 330,000 tested, 0.19% active. AID 485353; active means well fitted rising curve with a large enough effect; inconclusive means small, poorly fitted or top-dose-only effect; inactive means no such curve, though single readings can be large or run the other way; note: 0% is about no effect; nearly all actives have a fitted effect of over 55% in size; growth read by luminescence after 48 h
* marks the source's active call; other numbers are inactive results; ? = inconclusive; . = not tested or not shown; & = joins results of further samples; [ ] = dose if it differs, or a comment. Unless noted, calls come from the whole dose curve; as a rule, active = well fitted curve in the direction sought with a large enough effect; inconclusive = small, poorly fitted or top-dose-only effect, or another doubt; inactive = no such curve, though single readings can be large; an effect the other way counts as inactive or inconclusive. Potency is the fitted concentration of half-maximal effect. Rows are unselected, and some 4.7% of all compounds hit somewhere here.

SMILES	Cruzain Triton	MARV entry inh	StopGo reporter	NS1 function inh	Cruzain inh noDet	RE007 growth inh	Lassa entry inh	SARS PLpro yeast
COc1cccc(C2NC(=O)NC(C)=C2C(=O)Nc2ccc(C)cc2)c1 (configuration not stated)	0.3%	.	-11%	-1%	-1%	4%	.	2%
O=C(O)CCCNC(=O)CCCn1nnc2ccccc2c1=O	.	13%[46.1 µM]	-2%	6%	.	-8%	3%	1%
CCN(Cc1ccccc1)S(=O)(=O)c1cc(C(=O)O)ccc1OC	.	?	-11%	.	.	-5%	-18%	0%
CN(C)CCCNc1ncc(C(F)(F)F)cc1Cl	.	-3%[46.1 µM]	-15%	4%	.	-2%	11%	0%
Cc1cccc(-n2c(/C=C/c3cn(C)c4ccccc34)nc3ccccc3c2=O)c1	-4.5%	.	?	.	0%	.	?	.
CC(C)N1CCC(n2nccc2NC(=O)c2ccc3c(c2)OCO3)CC1	.	13%	-26%	9%	.	1%	7%	-2%
Cn1c(=O)c2c(-c3ccc(Cl)cc3)n(Cc3ccc(Cl)cc3)cc2n(C)c1=O	-1.2%	7%[46.1 µM]	?	.	14%	.	7%[46.1 µM]	.
Cc1[nH]c(=O)c(C#N)c(C)c1Cl	.	.	-4%	3%	.	3%	.	0%
COc1ccc2cc(-c3nc4ccc(C(=O)O)cc4[nH]3)c(=O)oc2c1	1.8%	.	1µM*	.	6%	.	10µM*	.
CCN(CC)CCn1c2c(c(SCC(=O)Nc3nc4ccccc4s3)nc1=O)CCCC2	.	?	-10%	.	.	-8%	?	2%
CN(C)C(=S)NC(=S)Nc1ccc2ccccc2c1	.	?	0%	.	.	1%	?	.
Cc1cc(=O)oc2cc(OCc3ccc(C(=O)N4CCN(c5ccc([N+](=O)[O-])cc5)CC4)cc3)ccc12	-5.3%	0%	0%	23%	13µM*	-2%	10%	-4%
COc1ccc(NC(=O)C2CCCN2C(=O)OCc2ccccc2)c(OC)c1 (configuration not stated)	-0.2%	-1%	-12%	-7%	0%	4%	-8%	3%
CC1CCN(CC(O)COc2cccc(F)c2)CC1 (configuration not stated)	4.9%	.	-12%	-3%	0%	0%	.	-8%
CCOc1ccc(N(CC)S(=O)(=O)N2CCCC(C(=O)NCc3ccccc3OCC)C2)cc1 (configuration not stated)	-6.0%	.	-29%	.	29%	.	?	.
O=C(Cc1ccccc1)NNc1c2ccccc2nc2ccccc12	.	?	1%	-15%	.	-3%	-10%[46.1 µM]	0%
CC(=O)Nc1ccc(OCc2cc(=O)n3ccccc3n2)cc1	4.7%	.	29%	.	2%	.	20%[46.1 µM]	.
Cc1cc(N)n(Cc2ccc(Cl)cc2)n1	.	.	-2%	4%	.	4%	.	0%
O=C(Nc1ccc2c(c1)C(=O)NC2=O)c1ccc2ncsc2c1	.	29%[46.1 µM]	10%	7%	.	14%	7%[46.1 µM]	0%
COCC(C)NC(=O)C(C)Oc1ccccc1 (configuration not stated)	1.6%	6%	-12%	13%	4%	8%	?	11%
O=C(NCc1ccco1)NC12CC3CC(CC(C3)C1)C2	2.5%	6%	0%	2%	4%	3%	?	-2%
Cc1cccc(N(C(=O)CNC(=O)c2ccco2)C(C(=O)NC2CCCCC2)c2cccnc2)c1 (configuration not stated)	.	25%[46.1 µM]	-10%	2%	.	-11%	-22%	0%
Cc1ccc(NC(=O)c2ccc(S(=O)(=O)N3CCOCC3)cc2)nc1	3.9%	27%	-5%	-3%	-5%	14%	-8%	9%
CCC(C)NC(=O)c1ccc2c(c1)N(Cc1ccccc1)C(=O)c1ccccc1S2(=O)=O (configuration not stated)	-1.8%	-26%[46.1 µM]	-9%	.	0%	.	?	.
Cc1ccc2c(COC(=O)C3CC(=O)N(c4ccc5c(c4)OCCO5)C3)cc(=O)oc2c1 (configuration not stated)	.	-6%	0%	.	.	8%	?	-26%
Cc1ccc(C)c(NC(=O)CSc2cn(CC(=O)N3CCCCC3)c3ccccc23)c1	1.1%	.	4%	.	-3%	.	-1%[46.1 µM]	.
CCn1c(=O)cc(OCC(=O)N2CCN(c3cccc(C(F)(F)F)c3)CC2)c2ccccc21	-27%	?	?	-43%	?	4%	-24%	-4%
CC(=O)c1ccc(S(=O)(=O)N2CCCc3ccccc32)cc1	.	.	10%	14%	.	3%	.	-4%
O=C(CCCc1nc(-c2ccccc2Cl)no1)NCc1cccnc1	-1.2%	?	-15%	3%	2%	1%	5%	2%
COCCN(C(=O)CSc1nnc(-c2cccc(F)c2)n1N)c1c(N)n(CC(C)C)c(=O)[nH]c1=O	.	.	-9%	4%	.	-15%	.	-2%
Cc1csc(SCC(=O)Nc2cccc(C)c2C)n1	.	12%	2%	.	.	5%	2%	0%
Cc1cc(C)c(S(=O)(=O)Nc2ccc(C(N)=O)cc2)c(C)c1	.	9%[46.1 µM]	10%	2%	.	5%	-14%	0%
CN(C)c1nc(SCC(=O)Nc2ccc(Cl)c(Cl)c2)nc(N2CCOCC2)n1	.	?	?	-4%	.	-1%	-18%	-1%
O=C(Nc1ccc(F)cc1)C1COc2ccccc2O1 (configuration not stated)	.	.	46%[activator]	-1%	.	-27%	.	-2%
O=C(NCCCCCc1nc2ccccc2[nH]1)c1ccccc1Cl	.	.	-27%	10%	.	-14%	.	1%
N#Cc1c2c(c(Nc3ccccc3)n3c1nc1ccccc13)CCC2	-1.2%	?	?	14%	-3%	-3%	-4%	-6%
COc1ccc(CSc2nnc(C)n2N)cc1Br	-0.6%	15%	27%	7%	5%	-18%	12%	5%
CCn1cc2nc(SCC(=O)Nc3ccc(C)cc3)n(Cc3ccc(C)cc3)c(=O)c2n1	-2.4%	.	-10%	.	?	.	?	.
Cc1ccc2[nH]c(O)c(N=NC(=O)C(C)n3cnc4ccccc4c3=O)c2c1 (configuration not stated)	-6.6%	?	-13%	1%	-17%	-6%	-3%	-7%
CCn1c([N+](=O)[O-])nc2c1c(=O)[nH]c(=O)n2C	.	?	?	-1%	.	3%	18µM*	17%
COc1ccc(N2CSC3=C(C#N)C(c4cccs4)CC(=O)N3C2)cc1 (configuration not stated)	-24%	4%&4%&4%	3%	-32%	?	-15%	-3%	5%
CN(Cc1ccccc1)C(=O)c1cc2c(=O)n(C)c3ccccc3c2s1	-1.7%	1%[46.1 µM]	27%	.	3%	.	3%[46.1 µM]	.
CCC(Sc1ccccn1)C(=O)Nc1cccc([N+](=O)[O-])c1 (configuration not stated)	.	?	?	-11%	.	-4%	?	-3%
CCN(CC)S(=O)(=O)c1ccc(Cl)c(C(=O)NCC2CCCO2)c1 (configuration not stated)	2.2%	11%	.	1%	4%	7%	?	19%
CCCCCOc1ccc(CSc2ncn[nH]2)cc1	-9.3%	19%	38%[activator]	-19%	14%	-5%	23%	-44%

Quoted from the listing, 6 compounds:
SMILES	Cruzain Triton	MARV entry inh	StopGo reporter	NS1 function inh	Cruzain inh noDet	RE007 growth inh	Lassa entry inh	SARS PLpro yeast
CCn1c([N+](=O)[O-])nc2c1c(=O)[nH]c(=O)n2C	.	?	?	-1%	.	3%	18µM*	17%
COc1ccc(N2CSC3=C(C#N)C(c4cccs4)CC(=O)N3C2)cc1 (configuration not stated)	-24%	4%&4%&4%	3%	-32%	?	-15%	-3%	5%
CN(Cc1ccccc1)C(=O)c1cc2c(=O)n(C)c3ccccc3c2s1	-1.7%	1%[46.1 µM]	27%	.	3%	.	3%[46.1 µM]	.
CCC(Sc1ccccn1)C(=O)Nc1cccc([N+](=O)[O-])c1 (configuration not stated)	.	?	?	-11%	.	-4%	?	-3%
CCN(CC)S(=O)(=O)c1ccc(Cl)c(C(=O)NCC2CCCO2)c1 (configuration not stated)	2.2%	11%	.	1%	4%	7%	?	19%
CCCCCOc1ccc(CSc2ncn[nH]2)cc1	-9.3%	19%	38%[activator]	-19%	14%	-5%	23%	-44%

Next structures:
SMILES	Cruzain Triton	MARV entry inh	StopGo reporter	NS1 function inh	Cruzain inh noDet	RE007 growth inh	Lassa entry inh	SARS PLpro yeast
CC(=O)Nc1ccc(OC(=O)N(C)C)cc1	5.0%	18%	26%	-5%	-7%	-7%	11%	-1%
Brc1cnc(N2CCCCC2)nc1N1CCOCC1	7.0%	?	-17%	-63%	6%	-19%	-8%	9%
CC(C)C(C(=O)Nc1nccs1)c1ccccc1 (configuration not stated)	0.8%	-8%	-29%	-4%	7%	-2%	2%	17%
O=C(NC(=S)NCc1ccccc1)c1cccs1	.	.	18%	6%	.	-28%	.	?
CCCCc1nnc(NC(=O)C(C)Sc2nc(N)cc(=O)[nH]2)s1 (configuration not stated)	0.4%	?	1%	2%	3%	5%	29%	-4%
COc1ccc(-c2noc(CN(C)C(=O)c3ccoc3C)n2)cc1OC	.	-3%[46.1 µM]	-5%	-2%	.	-13%	-18%[46.1 µM]	13%
CC(=O)c1ccc(NC(=S)Nc2ccn(Cc3ccc(Br)cc3)n2)cc1	.	?	-7%	2%	.	7%	?	0%
CC1CCc2cc(F)ccc2N1C(=O)CSc1nnc2c3cc(F)ccc3n(C)c2n1 (configuration not stated)	-6.2%	3%[46.1 µM]	-2%	14%	8%	6%	4%[46.1 µM]	-28%
CCn1c(=N)n(CC(=O)c2cccc(OC)c2)c2ccccc21	1.0%	?	10%	-3%	6%	0%	7%	9%
Cc1cccc(NC(=O)C(C)N2C(=O)c3ccccc3S2(=O)=O)n1 (configuration not stated)	.	?	-22%	.	.	9%	6%	2%
CCOC(=O)C1(CC)Oc2ccccc2C(c2ccc(OC)cc2)=C1C(=O)OC (configuration not stated)	0.8%	.	?	.	14%	?	.	-47%
O=C(N/N=C1\CCc2ccccc21)c1ccccc1O	-3.1%	5µM*	-33%	-2%	0%	-5%	?	-32%
COc1ccc(CN2CCNC(=O)C2CC(=O)N(C)Cc2nc(C)cs2)c(OC)c1 (configuration not stated)	.	17%	-1%	9%	.	3%	13%	1%

Bioassay records: PubChem BioAssay, National Center for Advancing Translational Sciences (NCATS)
